# Source: PubChem (several laboratories)
# Arbovirus inh – blocks arbovirus infection; 200,000 compounds, 0.37% hits; arbovirus infection cell-based antiviral screen; inhibition, % at 10 µM; AID 1251;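 active = inhibition from about 30%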;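 also: bluetongue infection of BSR cells; cell survival read as ATP light after 72 h; 0% = infected wells without compound and 100% = uninfected wells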
# Mtb H37Rv – M. tuberculosis H37Rv growth inhibitors, H37Rv strain (AID 1626); inhibition, % at 10 µM; hits with a dose series show IC50 in µM; 220,000 compounds, 0.95% hits; M. tuberculosis H37Rv growth inhibition; higher % means a stronger effect;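 active = confirmed in a dose series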;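 also: bacteria incubated seven days before Alamar blue readout; 0% = bacteria only wells and 100% = bacteria with antibiotic wells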
# Mtb betalactam – beta-lactam sensitization of Mtb H37Rv; M. tuberculosis H37Rv growth with meropenem, percent inhibition; hits of this screen are not shown here; inhibition, % at 25 µM; 330,000 compounds, 0.27% hits;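 active = about 74% or more and at least 40 points above the plate without the antibiotic, then above 30% in a dose series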;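 also: growth measured after seven days incubation then overnight dye step; 0% = bacteria only wells and 100% = bacteria with antibiotic; twin plates without the antibiotic show which effects depend on it; some results filed as inactive read as strong as hits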
# YopH PTP inh – blocks Yersinia enterocolitica YopH tyrosine phosphatase. inhibition, %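 (about 10 µM by stock and volumes)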. 140,000 compounds, 0.16% hits. fluorescence Ex485/Em525. AID 898;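 active = inhibition of 50% or more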;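 also: controls were vehicle for no effect and minimum signal wells for full effect; inactives centre near -20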
# RecA splice inh – blocks M. tuberculosis RecA intein splicing; P9WHJ3; cell-free RecA intein splicing, fluorescence; inhibition, %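 (about 9 µM by stock and volumes)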; 290,000 compounds, 0.75% hits; AID 2221; in the data active = inhibition above about 30%;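 also: 0% = vehicle wells and 100% = reference inhibitor control wells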
# Target sequence (P9WHJ3 whole entry, looked up, canonical isoform): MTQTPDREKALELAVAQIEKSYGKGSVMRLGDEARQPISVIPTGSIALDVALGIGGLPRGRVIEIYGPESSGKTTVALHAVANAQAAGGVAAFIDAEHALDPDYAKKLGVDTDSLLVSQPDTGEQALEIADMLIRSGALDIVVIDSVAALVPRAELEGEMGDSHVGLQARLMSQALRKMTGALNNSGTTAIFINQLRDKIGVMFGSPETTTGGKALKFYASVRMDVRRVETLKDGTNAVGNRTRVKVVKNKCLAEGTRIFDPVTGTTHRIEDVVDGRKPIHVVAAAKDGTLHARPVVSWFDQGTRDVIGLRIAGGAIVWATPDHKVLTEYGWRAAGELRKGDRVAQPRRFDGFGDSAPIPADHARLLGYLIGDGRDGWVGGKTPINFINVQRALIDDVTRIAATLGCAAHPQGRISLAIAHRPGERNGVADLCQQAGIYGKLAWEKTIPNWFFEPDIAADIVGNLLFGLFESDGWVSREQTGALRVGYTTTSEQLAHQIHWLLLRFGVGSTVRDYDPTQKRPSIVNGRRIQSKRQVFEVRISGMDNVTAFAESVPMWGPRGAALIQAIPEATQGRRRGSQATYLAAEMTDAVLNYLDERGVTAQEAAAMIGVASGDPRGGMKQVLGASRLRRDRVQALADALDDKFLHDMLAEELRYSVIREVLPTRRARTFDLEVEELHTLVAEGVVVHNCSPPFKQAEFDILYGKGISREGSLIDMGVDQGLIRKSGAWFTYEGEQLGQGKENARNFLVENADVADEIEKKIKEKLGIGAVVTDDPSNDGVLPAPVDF
# Arbovirus inh repeat – recorded beside Arbovirus inh, whose call it bears; inhibition, %; measured here: 10K subset replicate screen; many hits read low in the repeat;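 first of two repeat runs on a subset; 0% = infected and 100% = uninfected wells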
# Active calls of the source: *; · = no result given.
SMILES,Arbovirus inh,Mtb H37Rv,Mtb betalactam,YopH PTP inh,RecA splice inh,others
O=C(CCCC(=O)N(CC(=O)NC1CCCCC1)Cc1ccc2c(c1)OCO2)Nc1ccccn1,0,3%,-14,-5,3.8,
COc1ccc(NS(=O)(=O)c2ccc(-n3nnc4ccccc43)c([N+](=O)[O-])c2)cc1,-7,-2%,4,-7,1.4,
COc1ccc(C(=O)Nc2ccc(N3CCCCC3)cc2)cc1Br,1,5%,5,-7,-3.8,
CC1(C(=O)NC(=S)N(CCC#N)Cc2cccnc2)CC1(Cl)Cl (centres undefined),6,-1%,-5,·,12,
CS(=O)(=O)N1CCC(Oc2ccccc2C(=O)NCCCc2cccnc2)CC1,3,-5%,8,·,0.2,
Cc1cc(C)c2c(-n3cccc3)c(C(=O)NNS(=O)(=O)c3ccc(F)cc3)sc2n1,3,-11%,-3,-17,-7.1,
O=C(N/N=C/c1ccc(N2CCOCC2)s1)c1ccc(NS(=O)(=O)c2cccs2)cc1,·,-2%,4,·,-43,
CCOC(=O)C1CCCN(C(=O)C2CCN(S(=O)(=O)CC)CC2)C1 (centres undefined),10,-3%,13,-32,·,
Cc1ccc(NC2=NCCCS2)c(C)c1C,-1,0%,-3,-22,-1.2,
CN(C)c1ccc(C2N(c3ccc(Cl)cc3)C(=O)C3CCCN32)cc1 (centres undefined),3,-7%,-3,-7,4.6,Arbovirus inh repeat=5
O=C(c1ccc(-c2ccccc2)cc1)N1CCN(c2ccccc2F)CC1,·,·,90,·,13,
COc1ccc2c3c(cccc13)C(=O)N(O)C2=O,-19,2%,2,-32,-12,

# 6 compounds drawn at random from those above:
SMILES,Arbovirus inh,Mtb H37Rv,Mtb betalactam,YopH PTP inh,RecA splice inh,others
Cc1ccc(NC2=NCCCS2)c(C)c1C,-1,0%,-3,-22,-1.2,
COc1ccc(NS(=O)(=O)c2ccc(-n3nnc4ccccc43)c([N+](=O)[O-])c2)cc1,-7,-2%,4,-7,1.4,
O=C(c1ccc(-c2ccccc2)cc1)N1CCN(c2ccccc2F)CC1,·,·,90,·,13,
Cc1cc(C)c2c(-n3cccc3)c(C(=O)NNS(=O)(=O)c3ccc(F)cc3)sc2n1,3,-11%,-3,-17,-7.1,
O=C(CCCC(=O)N(CC(=O)NC1CCCCC1)Cc1ccc2c(c1)OCO2)Nc1ccccn1,0,3%,-14,-5,3.8,
COc1ccc2c3c(cccc13)C(=O)N(O)C2=O,-19,2%,2,-32,-12,

# Molecules above with a halogen:
SMILES,Arbovirus inh,Mtb H37Rv,Mtb betalactam,YopH PTP inh,RecA splice inh,others
COc1ccc(C(=O)Nc2ccc(N3CCCCC3)cc2)cc1Br,1,5%,5,-7,-3.8,
CC1(C(=O)NC(=S)N(CCC#N)Cc2cccnc2)CC1(Cl)Cl (centres undefined),6,-1%,-5,·,12,
Cc1cc(C)c2c(-n3cccc3)c(C(=O)NNS(=O)(=O)c3ccc(F)cc3)sc2n1,3,-11%,-3,-17,-7.1,
CN(C)c1ccc(C2N(c3ccc(Cl)cc3)C(=O)C3CCCN32)cc1 (centres undefined),3,-7%,-3,-7,4.6,Arbovirus inh repeat=5
O=C(c1ccc(-c2ccccc2)cc1)N1CCN(c2ccccc2F)CC1,·,·,90,·,13,

# Returning to the listing; the 2 compounds before the break are reprinted first.
SMILES,Arbovirus inh,Mtb H37Rv,Mtb betalactam,YopH PTP inh,RecA splice inh,others
O=C(c1ccc(-c2ccccc2)cc1)N1CCN(c2ccccc2F)CC1,·,·,90,·,13,
COc1ccc2c3c(cccc13)C(=O)N(O)C2=O,-19,2%,2,-32,-12,
O=C(N/N=C/c1ccccc1Cl)c1[nH]c2ccc(Br)cc2c1-c1ccccc1,-5,13%,-4,10,19,
Fc1cccc(Cl)c1Cn1ncc2ccccc21,·,·,-14,·,1.8,
C=CCO/N=C(/CCC)C1=C(N)CC(C)(C)CC1=O,-4,-4%,3,·,0.0,
Cc1onc(-c2ccccc2)c1CNC(=O)Nc1ccccc1,·,-6%,-11,·,0.2,
Nc1ccc(-c2ncc(-c3ccccc3)o2)cc1,·,·,11,·,2.0,
CCOc1cc(CN2CCN(S(=O)(=O)Cc3ccccc3)CC2)ccc1OC,·,·,-4,·,-0.4,
O=C(NCC(O)c1ccc([N+](=O)[O-])cc1)Nc1ccccc1 (centres undefined),·,·,6,·,-3.2,
CCCNC(=O)CC(NS(=O)(=O)c1ccc(OC)cc1)c1ccco1 (centres undefined),-3,4%,-5,·,0.1,
O=C(/C=C/c1ccccc1Cl)N(Cc1cccs1)C1CCS(=O)(=O)C1 (centres undefined),·,3%,-4,·,1.5,
N#C/C(=C/c1ccc(F)cc1)c1nnc(NC(=O)c2ccccc2)s1,·,0%,0,·,-2.3,
Cc1nn(-c2c(Cl)cc(Cl)cc2Cl)c(=O)c2ccccc12,1,13%,-2,-12,2.8,
CC(=O)Nc1ccc(-n2cc(-c3ccccc3)[nH]c2=S)cc1,5,6%,-5,·,3.2,
CC1Oc2ccccc2N(CC(=O)NCCN2CCOCC2)C1=O (centres undefined),·,·,-1,·,-1.6,
Cc1ccc(C)c(-c2cc(C(=O)Nc3cccc(C(=O)O)c3)c3ccccc3n2)c1,5,3%,5,·,2.3,
Cc1ccc(-c2c(C(=O)N/N=C/c3cccc(Cl)c3)nnn2-c2nonc2N)cc1,·,·,45,·,-0.6,
Cc1cccnc1NC(=O)CNC(=O)COc1ccccc1,·,·,-5,·,0.0,
NC(=O)c1ccc(Cl)c2ccccc12,·,-2%,-3,·,-0.9,
CCOC(=O)C1=NN(c2ccccc2)C2(S1)SC(C(C)=O)=C(C)N2c1ccccc1 (centres undefined),-10,-11%,-1,-22,1.2,
COc1ccc(-c2ccc3nnc(SCC(=O)N4CCCC4)n3n2)cc1,·,·,-1,·,1.3,
CC1CC(=O)c2cnc(Nc3ccccc3)nc2C1 (centres undefined),17,-15%,-3,-24,0.9,
O=C(Cc1sc(-c2ccccc2)nc1-c1ccccc1)Nc1ccccc1,-6,4%,52,15,1.9,
COc1ccc(Br)cc1CN(C)C(=O)c1cnc(C)cn1,·,·,3,·,0.2,
CC(=O)c1ccccn1,·,·,-10,·,-0.9,
CCOC(=O)c1c(NC(=O)/C=C/c2ccc3c(c2)OCO3)sc(C)c1CC,-31,7%,4,-28,-2.3,
COc1cccc(C2=NOC(C(=O)Nc3cc(C)on3)C2)c1 (centres undefined),·,4%,2,·,-1.1,
Cc1ccc(C)c(N(CC(=O)NC2CCCC2)C(=O)CCCC(=O)Nc2ccccn2)c1,0,3%,·,-24,-0.4,
COC(CN(C)S(=O)(=O)c1cc2c3c(c1)CCN3C(=O)CC2)OC,·,·,3,·,0.5,
Cc1cc(C)cc(OCc2nnc(SCC(=O)OC(C)C)o2)c1,-4,>100µM*,100,-14,3.2,
CCCc1cc(=O)oc2c(C)c(OCC(=O)Nc3ccccn3)ccc12,·,·,5,·,0.2,
CCOC(=O)COc1c(Cl)cc(/C=C2\N=C(C)OC2=O)cc1OC,·,·,13,·,-1.2,
Cc1ccc(C(=O)Oc2oc(-c3ccco3)nc2C=Nc2ccccc2)cc1,2,0%,·,-3,·,
N=C1S/C(=C\c2ccc(-c3cccc(Cl)c3)o2)C(=O)N1c1nccs1,-25,<0.2µM*,87,7,4.2,
OCC[C@@H]1C[C@@H](O)[C@H](O)[C@@]2(Cc3ccccc3O2)O1,·,·,-3,·,-3.1,
COc1ccc(CN2C3CCCC2CC(NC(=O)Nc2ccccc2)C3)cc1 (centres undefined),-11,-1%,-3,-14,0.2,
CC(C)c1ccccc1NC(=O)CCCC(=O)O,0,-1%,-14,30,-5.7,Arbovirus inh repeat=0
Cc1cccc(C)c1-n1c(SCC(=O)N2CC(=O)Nc3ccccc32)nc2ccccc2c1=O,13,6%,9,-23,9.0,

# Some of the compounds tested; rates above refer to the full screens.
